fixLJ activator: increases Burkholderia fixLJ two-component signaling; 29,000 compounds, 0.3% hits; B. multivorans fixK-promoter GFP reporter, 18 h; active compounds read high; AID 1918990; z-score (test concentration not listed);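 active means replicate mean overnight rise in green fluorescent reporter signal, 3 or more SD over negative controls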;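 further: score is relative to vehicle wells of the plate; 300 nL library stock went into each well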
The depositor's hits bear a star. The list is partial. The share of hits here may be higher or lower than overall.

SMILES	fixLJ activator
CN[C@@H]1[C@H](O[C@H]2[C@H](O[C@@H]3[C@@H](O)[C@H](O)[C@@H](N=C(N)N)[C@H](O)[C@H]3N=C(N)N)O[C@@H](C)[C@]2(O)C=O)O[C@@H](CO)[C@H](O)[C@H]1O	0.3
CCc1ccc(C2C(C(=O)Nc3ccccc3OC)=C(C)Nc3nc(SCc4ccccc4)nn32)cc1 (stereo not given)	0.18
NC(=O)Cn1c(=O)n(CCCCCC(=O)NCc2ccccc2Cl)c(=O)c2sccc21	-1.2
CCCCN(CCCC)CCn1cnc2c([nH]c3ccc(OC)cc32)c1=O	-3
Cc1cc(C)c(-c2n[nH]c3c2C(c2ccccc2F)N(CCO)C3=O)c(O)c1 (stereo not given)	-2.5
CC1=C(C(=O)OC2CCCCCC2)C(c2ccc(Cl)cc2)CC(=O)N1 (stereo not given)	0.14
Cc1nnc(CN(Cc2ccncc2)CC2CCCO2)s1 (stereo not given)	-1.2
O=C(c1ccccc1Cl)N(Cc1ccco1)Cc1ccco1	0.56
Cc1cccc(N2CCN(C(=O)c3ccc(Nc4nc5ccccc5n5nnnc45)cc3)CC2)c1C	-0.85
COC(=O)c1ccccc1NC(=O)CSc1c2c(nc3ccc(Cl)cc13)CCCC2	-0.61
CCCCS(=O)(=O)c1nc(-c2ccc(Br)cc2)cc(-c2ccccc2)c1C#N	-0.11
COc1ccc(CCNC(=O)CCCn2c(=O)c3ccccc3n(Cc3ccccc3C#N)c2=O)cc1OC	-2
COc1ccc(Nc2nc(N)c3cc(OC)c(OC)cc3n2)cc1	-0.93
Cc1cc(C(=O)NCCn2nc(C)c(C)c2C)cc(S(N)(=O)=O)c1C	0.65
COc1ccc2c(C)c(C(=O)Nc3ccc(OC)c(C(=O)N(C)C)c3)oc2c1	-0.82
COc1cccc(-c2cn[nH]c2C2CCN(C(=O)C3CCOCC3)CC2)c1	-0.25
CCCn1c(=O)sc2cc(NC(=O)c3ccccc3Cl)ccc21	-2.1
CCCCOc1cccc(C2c3c(-c4cc(C)ccc4O)n[nH]c3C(=O)N2CCOC)c1 (stereo not given)	-1.6
Cc1ccc(-n2nc(CO)c(C(=O)NCCCc3ccccc3)n2)cc1C	2
O=C(CSCCN1CCCC1)NCc1ccccc1-n1cccn1	0.45
COc1ccc2cc(C3CN(c4cc(N)ncn4)CCO3)ccc2c1 (stereo not given)	-0.89
COc1ccc(-c2noc(-c3ccc(C)cc3Cl)n2)cc1OC	-1.2
CCOCCn1nc(C)cc1C(=O)N1CC(CO)C(CN2CCCCC2)C1 (stereo not given)	-0.6
COCC(C)N(Cc1ccc(OC)c(OC)c1)C(=O)Nc1ccccc1 (stereo not given)	-1.3
CC(=O)N1CCc2cc(S(=O)(=O)NC(Cc3ccccc3)C(=O)Nc3ccc(C)cc3C)ccc21 (stereo not given)	-2.7
COc1cccc(N2CCN(C(=O)CN3C(=O)COc4ccc(S(=O)(=O)N5CCC(C)CC5)cc43)CC2)c1	-0.67
Cc1ccc(NC(=O)c2oc3ccccc3c2NC(=O)Cc2ccccc2)cc1	-0.81
N#Cc1ccc(NCCn2cc(C(=O)N3CCSCC3)nn2)nc1	-1.2
COC(=O)Cc1c(C)c2ccc3c(c2oc1=O)CN(Cc1ccccc1OC)CO3	1.1
CC(NC(=O)c1ccc2c(c1)N(Cc1ccc(Cl)cc1)C(=O)CS2)c1ccccc1 (stereo not given)	-0.03
Cc1cc(C)n(C2CN(C(=O)NCc3oc4ccccc4c3C)C2)n1	0.27
O=C(O)c1ccc(CNCc2ccc(Cl)cc2)s1	-1.4
Fc1cccc(-n2ncc3c2ncn2nc(Cc4ccccc4)nc32)c1	-1.5
Cc1cncnc1C1CCN(C(=O)c2cc(Cl)c[nH]2)CC1	-3.2
Cc1cc2oc3c(c(=O)c2cc1C)C(c1ccc(C(C)C)cc1)N(c1nc(C)c(C)s1)C3=O (stereo not given)	-0.13
CCCc1nnsc1C(=O)NCCCOc1cccnc1	-0.7
Cc1ccc(S(=O)(=O)c2nc(-c3ccco3)oc2SCC(=O)Nc2ccc(F)cc2)cc1	-0.42
Cc1cccc2nc(Cn3c(=O)n(-c4ccc(Cl)cc4)c(=O)c4c5c(sc43)CCC5)cc(=O)n12	-0.02
CCOC(=O)c1c(-c2ccccc2)oc2ccc(NS(=O)(=O)c3ccc(C)cc3)cc12	1.3
CN1C(=O)CC[C@H]1c1cccnc1	-0.39
Cn1c(=O)cc(SCC(=O)NCc2ccc(F)cc2)c2ccc(Cl)cc21	0.04
O=C1CCc2cc(S(=O)(=O)NC(C(=O)Nc3ccc(F)cc3)c3ccccc3)ccc2N1 (stereo not given)	0.32
COc1ccc(NC(=O)c2ccco2)cc1NC(=O)c1cccc(C)c1OC	-2.5
O=C1CCCN1CC1CCN(C(=O)c2ccc(-c3cccc(F)c3)nc2)CC1	-0.35
CCc1ccc(NC(=O)CC2C(=O)N(c3ccc(C)cc3)C(=O)N2CCc2ccncc2)cc1 (stereo not given)	-2.9
O=C(CCc1ccc(O)cc1)c1c(O)cc(O)cc1O[C@@H]1O[C@H](CO)[C@@H](O)[C@H](O)[C@H]1O	0.46
COCC(=O)Nc1ccc(NC(=O)c2ccc(C3CCCO3)s2)cc1OC (stereo not given)	-0.43
COc1cccc(CNC(=O)C2CCN(S(=O)(=O)c3c(C)noc3/C=C/c3cccs3)CC2)c1	0.05
CCN(CC)CCNC(=O)Cn1ncc2c3ccccc3n(Cc3ccc(Cl)cc3)c2c1=O	3.5*
Cc1ccccc1Nc1c(-c2ccc(N3CCOCC3)cc2)nc2cccc(C)n12	-0.18
COc1cccc(NC(=O)Cn2c(=O)oc3cc(S(=O)(=O)N4CCCCC4)ccc32)c1	-0.25
CCOc1ccc2nc(NC(=O)c3cc(=O)c4ccc(C)cc4o3)sc2c1	-2
CCOc1ccc(-c2cn3c(n2)sc2cc(C(=O)NCCc4ccc(OC)cc4OC)ccc23)cc1	0.56
COc1cccc(C(=O)CC2(O)C(=O)Nc3ccc(Cl)cc32)c1 (stereo not given)	-0.91
CC(=O)Nc1ccc(S(=O)(=O)NC2(C(F)(F)F)C(=O)Nc3c2c(=O)[nH]c(=O)n3-c2cccc(Cl)c2)cc1 (stereo not given)	-0.74
O=C(c1ccc(N2CCCNCC2)nc1)N1CCCN(c2ncccn2)CC1	0.82
Cc1ccc(NC(=O)C2(C)Cc3ccccc3C(=O)O2)c(C)c1 (stereo not given)	-1.3
CC1Oc2ccc(NC(=O)C3CCCCCC3)cc2N(C)C1=O (stereo not given)	-0.15
COCCN1C(=O)N(c2cccc(OC)c2)C(=O)C1CC(=O)Nc1ccccc1 (stereo not given)	-0.54
COCC(=O)Nc1ccc(C)c(NC(=O)NCCc2cccc(OC)c2)c1	0.14

2 successive records from above, for reference:
SMILES	fixLJ activator
COCCN1C(=O)N(c2cccc(OC)c2)C(=O)C1CC(=O)Nc1ccccc1 (stereo not given)	-0.54
COCC(=O)Nc1ccc(C)c(NC(=O)NCCc2cccc(OC)c2)c1	0.14

Next part
SMILES	fixLJ activator
Cn1cc(CN(C(=O)Nc2ccccc2)C2CCCCC2)c2ccccc21	-1.1
CCC(=O)N1CCc2cc(S(=O)(=O)CCC(=O)N3CCN(c4ccccc4Cl)CC3)ccc21	-1.5
COc1cccc(OCc2nc3ccccc3n2Cc2ccccc2C)c1	2.2
Cc1ccc2c(c1)C(c1ccc(F)cc1)N(C(=O)C(C)C)CC(=O)N2 (stereo not given)	0.72
CCOc1cc(C2NC(=O)c3c(sc4c3CCN(C)C4)N2)ccc1OC(=O)c1ccccc1Cl (stereo not given)	0.35
COc1ccccc1-n1cc(-c2ccc(C)cc2)nc1S(=O)(=O)CC(=O)Nc1ccccc1C(F)(F)F	1.1
COc1cc(Cl)c(C)cc1NC(=O)CSc1ncc(S(=O)(=O)c2ccc(C(C)(C)C)cc2)c(=O)[nH]1	-1.3
O=C(c1ccc2n[nH]nc2c1)N1CCCC2(CCc3cn[nH]c32)C1 (stereo not given)	-0.94
COc1ccc(-c2nc3n(n2)C(c2ccc(OC)cc2)C(C(=O)Nc2cccnc2)=C(C)N3)cc1 (stereo not given)	-0.91
Cc1cc2nc3c(=O)[nH]c(=O)nc-3n(CC(O)C(O)C(O)CO)c2cc1C (stereo not given)	-5.5
CCC(Sc1nc2cc(OC)c(OC)cc2c2nc(-c3ccccc3)nn12)C(=O)Nc1cccc(C)c1 (stereo not given)	-0.92
CCOCCCNC(=O)C(c1ccc(C)cc1)N(Cc1cccs1)C(=O)c1ccc(NC(C)=O)cc1 (stereo not given)	-0.2
CCC(=O)NCc1cc2n(n1)CCN(Cc1cccc(-n3cccn3)c1)C2	-1.5
COc1ccccc1CCNC(=O)Cc1c(C)c2cc3c(C)coc3cc2oc1=O	-2.5
COc1cc(OC)cc(C(=O)Nc2ccc3oc(-c4ccccc4C)nc3c2)c1	0.22

A different layout for some results above:
Molecule: CCC(=O)N1CCc2cc(S(=O)(=O)CCC(=O)N3CCN(c4ccccc4Cl)CC3)ccc21
- fixLJ activator = -1.5

Molecule: COc1ccccc1-n1cc(-c2ccc(C)cc2)nc1S(=O)(=O)CC(=O)Nc1ccccc1C(F)(F)F
- fixLJ activator = 1.1

Molecule: CCOc1cc(C2NC(=O)c3c(sc4c3CCN(C)C4)N2)ccc1OC(=O)c1ccccc1Cl (stereo not given)
- fixLJ activator = 0.35

Molecule: CCC(=O)NCc1cc2n(n1)CCN(Cc1cccc(-n3cccn3)c1)C2
- fixLJ activator = -1.5

The listing continues.
SMILES	fixLJ activator
COc1ccc(N(CC(=O)NCc2ccc(F)cc2)S(=O)(=O)c2c(C)n[nH]c2C)cc1	-1.6
CCOC(=O)N1CCc2c(sc3c2c(=O)n(-c2ccc(Cl)cc2)c(=O)n3Cc2cccc(OC)c2)C1	0.91
CCOC(=O)c1ccc(NC(=O)C(CC)Sc2nc3ccncc3[nH]2)cc1 (stereo not given)	0.43
CCCCOc1cc(C(=O)NCCN(CC)CC)c2ccccc2n1	-2.7
O=C1c2ccccc2C(=O)C1(c1ccccc1)N1CCN(c2cccc(Cl)c2)CC1	-0.51
CCCOc1ccc(C(=O)Nc2cc3nn(-c4ccc(CC)cc4)nc3cc2C)cc1	-1.9
CCn1c(=O)c2cc(C(=O)NCCCN3CCN(C)CC3)sc2c2ccccc21	-1.7
O=C(NCc1ccc(F)cc1)c1cc2c(s1)-c1ccccc1SC2	-2.1
CCOc1ccc(Nc2nc(C)c(NC(=O)c3ccc(C)cc3)c(Nc3ccc(OCC)cc3)n2)cc1	1
Cc1ccc(CNC(=O)Cc2csc3ccccc23)cc1	-0.29
CCN(CC)CCSc1nnc2c3cc(F)ccc3n(CC)c2n1	-1.1
Cn1cnc2c1c(=O)[nH]c(=O)n2C	-0.46
COc1cc(C)c(-c2nc(CN3CCN(C)C(=O)C3)c(C)o2)cc1C	-0.78
CCOc1ccc(Nc2cc(C)nc3nncn23)cc1	-2.4
Cc1ccc(C(=O)NC2CCOCC2OCCO)cc1-n1c(C)ccc1C (stereo not given)	-1.5
CC(C)Oc1cccc(C(=O)Nc2ccc3oc(-c4cccc(Cl)c4)nc3c2)c1	-0.67
COc1cc(C(=O)Nc2ccc(NC(=O)c3ccc(Br)cc3)cc2)cc(OC)c1OC	-1.1
NC(=O)c1ccc(OC2COCCC2NC(=O)c2cnccn2)cc1 (stereo not given)	-0.35
Cn1ncc2nc(SCC(=O)Nc3ccc(Br)cc3F)n(Cc3ccccc3)c(=O)c21	-1.4
CN(C)C(=O)N1CCC(C(=O)N2CCC(c3ncon3)CC2)CC1	0.1
Cc1cc(=O)n2nc(N3CCC(C(=O)Nc4ccc(Br)cc4F)CC3)sc2n1	-2
COc1ccc(-c2cc(C(=O)OCC(=O)c3cccc(OC)c3)c3cccc(Cl)c3n2)cc1	-2.1
Cc1ccnc(NC(c2cc(C)ccc2O)c2ccc3cccnc3c2O)c1 (stereo not given)	0.38
O=C(NCCCN1CCN(c2ccc(F)cc2)CC1)Nc1ccc(Cl)cc1	-2.8
CCOc1cc(Br)cc(C2NC(=O)c3c(sc4c3CCN(C)C4)N2)c1O (stereo not given)	-1.2
Cn1c(=O)oc2cc(S(=O)(=O)NC(Cc3ccccc3)C(=O)NCc3ccccc3Cl)ccc21 (stereo not given)	-0.31
CCOC(=O)c1cccc(NC(=O)CCNS(=O)(=O)c2cccc3nonc23)c1	-1.8
CCCN(CCC)CCNC(=O)c1cc2c(=O)oc3ccc(C)cc3c2s1	-0.43
CC(C)NC(=O)c1cc2c(s1)CCOC21CCN(C(=O)CCN)CC1	0.69
COC(=O)c1ccc2oc(=O)c(S(=O)(=O)c3ccc(C)cc3)cc2c1	-0.91

Copied from the list:
fixLJ activator result of `Cc1ccc(NC(=O)C2(C)Cc3ccccc3C(=O)O2)c(C)c1` (stereo not given) reads -1.3
fixLJ activator result of `CCCn1c(=O)sc2cc(NC(=O)c3ccccc3Cl)ccc21` reads -2.1
fixLJ activator result of `Cc1cc2oc3c(c(=O)c2cc1C)C(c1ccc(C(C)C)cc1)N(c1nc(C)c(C)s1)C3=O` (stereo not given) reads -0.13
fixLJ activator result of `CCOc1cc(C2NC(=O)c3c(sc4c3CCN(C)C4)N2)ccc1OC(=O)c1ccccc1Cl` (stereo not given) reads 0.35

(cont.)
SMILES	fixLJ activator
CCc1c(C(C)C)nc(N)c(C#N)c1-c1ccc(O)c(OC)c1	1.2
COc1ccc(-n2nc(C(=O)N3CCCC(C)C3)c3c4ccccc4n(C)c3c2=O)cc1Cl (stereo not given)	-0.29
CCOC(=O)c1[nH]c2ccccc2c1NC(=O)c1cc(OCC)c(OCC)c(OCC)c1	2.1
COc1ccc(C2(N3CCN(c4cc(C)ccc4C)CC3)C(=O)c3ccccc3C2=O)cc1	-0.68
CC1Oc2ccc(NC(=O)c3cccc(-n4cnnc4)n3)cc2N(C)C1=O (stereo not given)	-1.3
O=C(Cn1c(=O)n(Cc2ccccc2)c(=O)c2sc3ccccc3c21)Nc1ccc(F)cc1	-0.03
Cc1ccc(C)c(NC(=O)c2nc(S(=O)(=O)Cc3ccc(F)cc3)ncc2Cl)c1	0.08
Cc1ccccc1Cn1nnc2c(=O)[nH]c(C3CCCN(C(=O)c4ccc(C(C)(C)C)cc4)C3)nc21 (stereo not given)	-1.9
